Screening data as filed in PubChem.
TDP1 inh: TDP1 (human) enzyme inhibition | Q9NUW8 | recombinant TDP1, AlphaScreen DNA substrate cleavage | Potency, µM (highest dose often 130 µM), for the others: at the highest dose activity change, negative = inhibition, usual class: inhibitors | 0.28% of 350,000 active | AID 485290; also: nearly all actives have a fitted effect of over 40% in size
Target sequence (Q9NUW8 whole entry, looked up): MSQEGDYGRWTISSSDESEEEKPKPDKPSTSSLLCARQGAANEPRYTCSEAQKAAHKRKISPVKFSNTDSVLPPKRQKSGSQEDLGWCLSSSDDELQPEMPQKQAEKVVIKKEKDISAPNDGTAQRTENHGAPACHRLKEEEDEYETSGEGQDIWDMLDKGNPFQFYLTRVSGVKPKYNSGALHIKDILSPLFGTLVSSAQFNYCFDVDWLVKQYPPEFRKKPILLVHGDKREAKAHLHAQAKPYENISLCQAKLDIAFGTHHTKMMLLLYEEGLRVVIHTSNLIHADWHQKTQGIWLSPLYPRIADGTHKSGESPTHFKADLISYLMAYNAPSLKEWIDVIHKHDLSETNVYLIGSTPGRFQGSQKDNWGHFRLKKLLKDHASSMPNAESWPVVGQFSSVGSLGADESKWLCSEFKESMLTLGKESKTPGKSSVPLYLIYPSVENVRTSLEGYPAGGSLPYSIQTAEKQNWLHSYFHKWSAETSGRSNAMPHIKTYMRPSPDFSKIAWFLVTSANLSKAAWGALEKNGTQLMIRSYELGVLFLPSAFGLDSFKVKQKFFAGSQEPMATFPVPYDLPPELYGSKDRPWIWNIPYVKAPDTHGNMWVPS
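Tdp1 1 nM final; 15 min RT w/ cpd; substrate 15 nM, 5 min; beads 10 ug/ml, 10 min; AlphaScreen read. Neg ctrl: no enzyme.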
FEN1 inhibitor: inhibitors of human flap endonuclease 1. AID 588795. Recombinant FEN1 flap cleavage, fluorescence, 15 min. 0.35% of 390,000 active. Potency, µM (doses to about 114 µM), for inactives: at the highest dose activity change, negative = inhibition, most hits filed as inhibitors. P39748; also: nearly all actives have a fitted effect of over 65% in size
Target sequence (P39748 whole entry, looked up): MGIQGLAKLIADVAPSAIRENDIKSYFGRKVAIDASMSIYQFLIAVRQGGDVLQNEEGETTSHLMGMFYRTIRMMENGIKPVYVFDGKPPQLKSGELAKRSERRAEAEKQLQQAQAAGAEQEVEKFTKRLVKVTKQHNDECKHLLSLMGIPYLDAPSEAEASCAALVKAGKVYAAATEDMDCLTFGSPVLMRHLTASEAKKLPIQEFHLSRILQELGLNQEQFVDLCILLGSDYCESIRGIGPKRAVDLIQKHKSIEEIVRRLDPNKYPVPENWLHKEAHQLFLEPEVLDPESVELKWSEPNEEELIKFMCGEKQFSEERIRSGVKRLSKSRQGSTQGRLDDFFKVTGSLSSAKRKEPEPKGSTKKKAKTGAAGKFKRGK
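Read-out was taken twice, immediately and after 15 min, following addition of 50 nM substrate to 10 nM FEN1 that had sat with test compound for 15 min at room temperature. Curves came from a four-parameter Hill model.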
Active calls of the source: *; ? = inconclusive; . = not tested or not shown; & = joins results of further samples; [ ] = another dose, or the depositor's remark. Calls follow the shape of the dose curve; as a rule, active = well fitted inhibition curve with a large enough effect; inconclusive = small, poorly fitted or top-dose-only effect; inactive = no such curve, though single readings can be large or run the other way. % is scaled to controls: 0 for no effect and ±100 for the full control effect; potency is read from the fitted curve at half-maximal effect.

SMILES	TDP1 inh	FEN1 inhibitor
Cc1oc(C(=O)Nc2ccc(O)cc2)cc1COc1ccccc1	7%	6%
Cc1nn(C)c(C(=O)N/N=C/c2ccccc2)c1[N+](=O)[O-]	7%	-1%
Cc1ccc(-n2c(C)cc(C(=O)NS(=O)(=O)c3ccc(C)cc3)c2C)cc1	7%	9%
CC1CCN(C(=O)CNC(=O)CNC(=O)Cc2ccccc2)CC1	2%	9%
O=C(CSc1nc(=O)n(CCCN2CCOCC2)c2c1CCCC2)Nc1ccc(F)cc1	-7%	8%
O=C(O)CCC(=O)Nc1ccc(OCC2CCCO2)cc1 (stereo not drawn)	.	-16%
COc1ccc(CCNC(=O)CSc2nc(O)c(CCC(C)C)c(=O)[nH]2)cc1OC	0%	7%
CC(C)COC(=O)c1cccc2c1-c1ccccc1/C2=N\O	2%	?
Cn1nnnc1SCC(=O)NCc1cccc(C(=O)O)c1	-2%	5%
Cn1c(CNC(=O)c2ccco2)nnc1SCC(=O)c1ccc(Br)cc1	3%[0.0935 µM]	-1%
CCc1ccc(NC(=O)c2ccc3nc(N)sc3c2)cc1	7%	14%
Cn1c(=O)c2c(nc(SCCN3CCCCC3)n2C)n(C)c1=O	2%	-3%
Cc1cccc(NC(=O)c2ccc(NC(=O)c3ccccc3Br)cc2)c1	1%	4%
CCc1nnc(NC(=O)c2ccc(S(=O)(=O)N(CCOC)CCOC)cc2)o1	5%	-3%
Cc1ccc(SCCC(=O)Nc2cccnc2)cc1	6%	-3%
CCOC(=O)c1nc(C)sc1-c1ccnn1S(=O)(=O)c1ccc(C)cc1	0%	-14%
CSCCC(NC(=O)C12CC3CC(CC(C3)C1)C2)C(=O)OCC(=O)c1ccc(C)cc1 (stereo not drawn)	0%	14%
CNC(=S)Nc1cc(C(=O)N2CCCC2)ccc1N1CCCC1	0%	-2%
NNC(=O)CNc1cccc(Cl)c1	4%	-3%
Cn1nc(C(C)(C)C)cc1NC(=O)Nc1ccc(F)cc1F	.	6%

Ordered by SMILES length (lowest first): five of the compounds above.
SMILES	TDP1 inh	FEN1 inhibitor
NNC(=O)CNc1cccc(Cl)c1	4%	-3%
Cn1nc(C(C)(C)C)cc1NC(=O)Nc1ccc(F)cc1F	.	6%
CC1CCN(C(=O)CNC(=O)CNC(=O)Cc2ccccc2)CC1	2%	9%
Cc1nn(C)c(C(=O)N/N=C/c2ccccc2)c1[N+](=O)[O-]	7%	-1%
CCOC(=O)c1nc(C)sc1-c1ccnn1S(=O)(=O)c1ccc(C)cc1	0%	-14%

(continued)
SMILES	TDP1 inh	FEN1 inhibitor
Cc1ccc(Cn2nnc3c(=O)[nH]c(C4CCN(C(=O)Cc5cccs5)CC4)nc32)cc1	0%	2%
CCOc1ccc(C(=O)Nc2nncs2)cc1OCC	0%	49%[activator]
N#CCCN(CCC#N)S(=O)(=O)c1ccc(C(=O)Nc2nc(-c3ccccc3)c(C(=O)c3ccccc3)s2)cc1	.	5%
Cc1ccc(C)c(NC(=O)CCC(=O)OC(C(=O)c2ccccc2)c2ccccc2)c1 (stereo not drawn)	-3%	-1%
COc1ccccc1C(=O)NC(=O)COC(=O)C1CCC1	.	5%
CC(C)c1nc(C#N)c(NCCCn2ccnc2)o1	3%	17%
Cc1cc(CN(C)C(=O)c2cc(COc3ccc(F)cc3Cl)on2)n[nH]1	-1%	2%
CCOc1ccc(C(CC(=O)O)NC(=O)Cc2ccccc2)cc1OC (stereo not drawn)	.	16%
O=C(Nc1cscc1S(=O)(=O)c1ccccc1)c1ccccc1Cl	.	2%
C=C(Nc1ccc(OCC)cc1)Nc1ccc(OCC)cc1	4%	.
Cc1ccc(S(=O)(=O)c2nc(NCc3ccc4c(c3)OCO4)sc2Cl)cc1	7%	-17%
Cc1nc2ccccc2cc1O	0%	-6%
O=C(c1cccs1)N1CCN(c2nc3ccc([N+](=O)[O-])cc3s2)CC1	.	2%
COc1ccc(C(=O)Nc2ccccc2C(=O)NC(Cc2c[nH]c3ccccc23)C(=O)O)cc1 (stereo not drawn)	8%	-10%
CCC(=O)n1nc(-c2ccco2)nc1N	2%	-1%
CCOC(=O)Cn1cc(C(=O)C(=O)N2CCOCC2)c2ccccc21	1%	-11%
COc1ccc(OCC(=O)Nc2cccc(OC)c2)cc1	7%	-11%
CCCCOC(=O)C1=C(C)Nc2ncnn2C1c1cccc(OC)c1OC (stereo not drawn)	-3%	-9%
CC(=O)C1=C(O)C(=O)N(c2ccc(F)cc2)C1c1ccc(C)cc1 (stereo not drawn)	.	23%
CCOC(=O)C(=O)Nc1ccc2c(c1)OCO2	1%	-10%
c1ccc2c(c1)CCCN2c1nc2ccccc2n2cnnc12	4%	8%
Nc1ccccc1SCC(=O)Nc1cccc2ccccc12	.	-2%
c1ccc(N2CCN(Cc3nnnn3C3CCCCC3)CC2)cc1	-1%	-10%
COc1ccc(F)cc1S(=O)(=O)n1nnc2ccccc21	6%	3%
CCN(Cc1ccncc1)C(=O)CCc1nnc(CCc2ccccc2OC)o1	1%	0%
COc1ccc(C/C(N)=N/O)cc1	2%	-4%
O=C(CCc1ccc(O)c(O)c1)NNC(=S)Nc1ccc(Br)cc1Cl	6%	8%
COc1ccc(-c2nnc(SCc3nc4ccccc4c(=O)[nH]3)o2)cc1	1%	-22%
CCOc1ccc(S(=O)(=O)NCCC(=O)N2CC(C)OC(C)C2)cc1 (stereo not drawn)	-8%[0.505 µM]	-6%
COc1ccc(N2CCN(C3CCCN(C(=O)CSC)C3)CC2)cc1 (stereo not drawn)	.	-2%
CCOc1ccc(NC(=O)NCc2cccn2C)cc1	.	-10%
COc1ccc(CCNC(=O)C2(c3ccccc3)CC2)cc1	1%	-12%
COc1ccc(CCNC(=O)[C@H](C)N2C(=O)N3CCc4c([nH]c5ccccc45)[C@@]3(C)C2=O)cc1OC	.	2%
CC(C)(C)C(=O)/C=C(N)/C=C/c1ccccc1	5%	-7%
COCCNC(=O)CCC(=O)NNc1nc2ccccc2c2nc(-c3ccccc3)nn12	5%&10%	-15%&12%
CCOc1ncccc1C(=O)Nc1ccc(Cl)c(S(=O)(=O)N2CCCC2)c1	3%	-1%
Cc1cc(C)c(C)c(OCCCn2ccnc2)c1	5%	7%
COc1ccc(CC(=O)NNC(=O)c2ccncc2)cc1	-3%	-1%
O=C(NCC1CCCO1)c1cccc(Oc2ccccc2)c1 (stereo not drawn)	3%	19%
Nc1nc(-c2ccccc2)cn1/N=C/c1ccccc1	4%	-12%
O=C(CSc1nc2ncccc2[nH]1)NCc1ccco1	-1%	-5%
Cc1cc(NC(=O)CN2CCOCC2)n(-c2nc3ccccc3s2)n1	4%	1%
CCC(CO)NCc1ccc2c(c1)n(C)c(=O)n2C (stereo not drawn)	-2%	-2%
Cc1cc(C)cc(NC(=O)NC2CCCCCCC2)c1	0%	13%
COc1ccc(C2c3ccc(O)cc3Oc3ncn(CC(C)C)c(=N)c32)cc1 (stereo not drawn)	8%	-10%
CCOC(=O)/C=C1/SCC(=O)N1CCOc1cccc(Br)c1	.	0%
COC(=O)c1ccc(CN(c2ccccc2OC)S(=O)(=O)c2cccs2)o1	3%	-4%
CC1=NN(c2ccccc2)C(=O)/C1=C\c1cn(-c2ccccc2)nc1C	8%	7%
COc1ccc(-n2cc(C(=O)c3ccccc3O)cn2)cc1	5%	0%
Cc1ccccc1CN(C)CCc1ccccn1	-4%	-9%
Cc1nn(-c2ccccc2)c(C)c1/C=C/C(=O)OCC(=O)NC1CCS(=O)(=O)C1 (stereo not drawn)	5%	-7%
O=C(NCCCn1ccnc1)C(=O)NCC1OCCN1S(=O)(=O)c1ccc(F)cc1 (stereo not drawn)	4%	14%
COc1ccc(C(=O)Oc2cc(/C=N/NC(N)=S)ccc2OC)cc1	6%	0%
COC(=O)C1C(=O)NCC1c1ccc(C)cc1 (stereo not drawn)	2%	2%
COc1ccc(COCCN2CCN(S(=O)(=O)c3ccccc3)CCC2=O)cc1	.	-9%
CCN(CC(=O)Nc1ccc(NC(C)=O)cc1)C(=O)/C=C/c1ccccc1	.	4%
COc1ccc(N(C(=O)c2ccccc2OC(C)=O)C(C)C2CC2)cc1 (stereo not drawn)	-3%	6%
CCCCCCNCCn1cnc2c(N)ncnc21	5%	-15%
CCn1c(C)cc2c(c1=O)C(c1ccncc1)C(C#N)=C(N)O2 (stereo not drawn)	-1%	-3%
O=c1c2ccccc2ncn1-c1ccccc1F	7%	-2%
(cont.)
SMILES	TDP1 inh	FEN1 inhibitor
COc1ccc(CNC(=O)C2CC(c3ccc(OC)cc3)=NO2)cc1 (stereo not drawn)	2%	-6%
COc1ccc(Nc2nc(S(=O)(=O)c3ccc(C)cc3)c(Cl)s2)cc1	3%	-22%
COc1ccc(C(=O)c2c[nH]c(C(=O)NCc3ccco3)c2)cc1	2%	15%
COc1ccc(C(=O)C[n+]2ccc(-c3nnc4n3CCC4)cc2)cc1	3%	-2%
COc1ccc(CNC(=O)c2cc(=O)c3c(C)cc(C)cc3o2)cc1	.	-12%
O=C1CN(C(=O)CSc2nc(-c3ccccc3)cs2)c2ccccc2N1	8%	-11%
CCOC(=O)Cc1cnc(N)s1	0%	5%
CCc1ccc(NC(=O)CSC2=C(C#N)C(c3ccco3)C3=C(CCCC3=O)N2)cc1 (stereo not drawn)	4%	1%
COc1ccc(S(=O)(=O)N2CCN(C(=O)NCc3ccccc3)CC2)cc1	4%	3%
CCOC(=O)c1c(C)n(OC)c2ccc3c(no[n+]3[O-])c12	2%	5%
Cc1cc(Cl)c(S(=O)(=O)N2CCN(c3ccccc3)CC2)cc1OCC(N)=O	7%[56.1 µM]	-8%
O=[N+]([O-])c1ccc2c(c1)C(N1CCOCC1)/C(=C/COc1ccc3ccccc3c1Br)O2 (stereo not drawn)	8%	0%
CC(C)C[C@@H](C(=O)NCC1CCCO1)N1C(=O)N2CCc3c([nH]c4ccccc34)[C@@]2(C)C1=O (stereo partly drawn)	.	-5%
O/N=C/c1cn(-c2ccccc2)nn1	0%	2%
COc1ccc(Cl)cc1NC(=O)CCN1CCN(C)CC1	0%	9%
COc1ccc(C(=O)Cn2nnc(-c3ccccc3NC(=O)C3CC3)n2)cc1	6%	0%
COc1ncccc1-c1nnn(-c2ccc(F)cc2)n1	1%	-5%
Cc1ccccc1NC(=O)CN1C(=O)S/C(=C/c2cccnc2)C1=O	1%	2%
Cc1cccc(NC(=O)CSCC(=O)Nc2ccc(S(=O)(=O)N3CCCCC3)cc2)c1	-2%	1%
Cc1ccccc1OCC(=O)N/N=C/c1cccc2cccnc12	2%	-12%

Sorted by the number under TDP1 inh (rising): 6 from the list above
SMILES	TDP1 inh	FEN1 inhibitor
Cc1cccc(NC(=O)CSCC(=O)Nc2ccc(S(=O)(=O)N3CCCCC3)cc2)c1	-2%	1%
COc1ccc(Cl)cc1NC(=O)CCN1CCN(C)CC1	0%	9%
COc1ncccc1-c1nnn(-c2ccc(F)cc2)n1	1%	-5%
COc1ccc(C(=O)c2c[nH]c(C(=O)NCc3ccco3)c2)cc1	2%	15%
COc1ccc(C(=O)C[n+]2ccc(-c3nnc4n3CCC4)cc2)cc1	3%	-2%
O=C1CN(C(=O)CSc2nc(-c3ccccc3)cs2)c2ccccc2N1	8%	-11%

(further entries)
SMILES	TDP1 inh	FEN1 inhibitor
COc1cccc(C2/C(=C(\O)c3ccc4c(c3)OCCO4)C(=O)C(=O)N2CCCN2CCOCC2)c1OC (stereo not drawn)	5%	3%
O=C(Nc1ccc2c(c1)OCCO2)C1CCN(S(=O)(=O)Cc2ccccc2)CC1	6%	7%
O=C(c1ccc2nc[nH]c2c1)N1CCN(S(=O)(=O)c2cccc(F)c2)CC1	-4%	6%
COc1ccc(NS(=O)(=O)c2cc(NC(=O)c3ccc(F)cc3)ccc2OC)cc1	0%	-7%
COc1ccc(C(=O)Nc2ccccc2C(=O)NCc2cccnc2)cc1OC	5%	16%
O=C(c1ccc2c(c1)N(Cc1ccc(F)cc1)CCS2)N1CCOCC1	6%	1%
Cc1ccc(-n2c(SCC(=O)N3Cc4ccccc4CC3C(=O)O)nnc2-c2cccnc2)c(C)c1 (stereo not drawn)	-14%	11%
COC(=O)c1c(NC(=O)CSc2n[nH]c(N)n2)sc(C)c1C	3%	-6%
CCOC(=O)C1CCN(C(=O)c2sccc2Cl)CC1	-3%	2%
Cc1ccccc1-n1nnnc1SC1CCOC1=O (stereo not drawn)	2%	-7%
CNc1ccc(/C=C(\C#N)c2ccccn2)cc1[N+](=O)[O-]	8%	4%
CN=Cc1c(NC)nc2c(C)cccn2c1=O	5%	-7%
Cc1ccc(O)c(-c2[nH]ncc2C(=O)c2ccc(Br)cc2)c1	.	-18%
CC(=O)c1cccc(NC(=O)CN(Cc2ccccc2)S(C)(=O)=O)c1	4%	-4%
Cn1c(=O)c2[nH]c(NCC3CCCO3)nc2n(-c2ccccc2)c1=O (stereo not drawn)	3%	-2%
O=c1[nH]n2c(-c3ccccc3)nc(O)c2c2ccccc12	.	7%
Cc1cc(Oc2nc3c(C)cccn3c(=O)c2/C=C(\C#N)S(=O)(=O)c2ccccc2)ccc1Cl	-3%	-8%
CC(C)(C)C(=O)CSc1nccc(=O)[nH]1	-2%	9%
CC(C)CCNC(=O)C(c1ccco1)N(CCCO)C(=O)Cn1nnc(-c2ccc(F)cc2)n1 (stereo not drawn)	-3%	-3%

These rows are one share of the data; most or all hits stand in other tables.
